Screening data from PubChem.
NPYLR7 ag: mosquito NPYLR7 agonism; 270,000 compounds, 0.15% hits; AID 1259423; HEK293T NPYLR7/Galpha15, GCaMP6s calcium fluorescence; activation, % at 10 µM; in the data active = activation above about 40%;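 also: 0% = vehicle and 100% = reference agonist at the receptor; some compounds past the cut are filed as inactive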
NPYLR7 ag max-min: also measured in NPYLR7 ag; calls as there; activation, %; measured here: Max-Min RFU normalised activation; some inactives read as strong as hits;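 span of the calcium signal over five minutes; 0% = vehicle and 100% = native peptide agonist; compound fluorescence can raise it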
Active calls of the source: *; & = joins results of further samples.

SMILES	NPYLR7 ag	NPYLR7 ag max-min
COc1cc(C=C2N=C(c3ccc(OC(F)F)cc3)OC2=O)cc(OC)c1OC	-2	-8
Cn1c(=O)n(CCC(=O)Nc2ccc3c(c2)OCO3)c2ccccc21	-12	-10
Cc1cc(C)n2c(NC(C)(C)C)c(-c3cccc(F)c3)nc2c1	5&-2	15&-1
CCOC(=O)c1c[nH]c2ccc(OC)cc2c1=O	-1	4
N#CCCN(CC(=O)NC(=O)NCC(F)(F)F)C1CC1	-3	-3
COc1ccccc1N1C(=O)CSC1c1ccccc1NC(=O)c1ccccc1C (stereo not drawn)	12	20
CCOC(=O)N1CCC(NCCCC2CCOC2)CC1 (stereo not drawn)	-5	-11
CCc1nc(C)c(C(C)N(C)C(=O)NCC(=O)N2CCCC2)s1 (stereo not drawn)	6	4
O=c1c2ccccc2sn1CN1CCN(S(=O)(=O)c2cccs2)CC1	-6	-7
Cc1cccc(-n2c(CCCO)nc3ccccc32)c1	2	-7
Cc1cc(N(C)CC2CCCCO2)nc(N2CCOCC2)n1 (stereo not drawn)	-9	-14
Cc1cccc(CO[C@]2(C(=O)NC3CC3)CC(OCc3ccccc3C#N)[C@H](O)[C@H](O)C2)c1 (stereo partly drawn)	8	14
CC(=O)Nc1cccc(C(=O)N(Cc2ccsc2)CC2CCCO2)c1 (stereo not drawn)	9	9
CN(CCc1ccccc1)C1(C(=O)N2CCOC(CN)C2)Cc2ccccc2C1 (stereo not drawn)	6	7
O=C(c1ccc(C(F)(F)F)o1)N1CCC2(CCNC2=O)CC1	2	4
CCc1[nH]c2c(CNC(=O)CC(C)N3CCOCC3)cc(C)cc2c1C (stereo not drawn)	4	5
CCOc1ccc(C(O)=C2C(=O)C(=O)N(Cc3cccnc3)C2c2cccc(OC)c2OC)cc1 (stereo not drawn)	4	5
COc1cccc(N2CCCn3c2nc2c3c(=O)n(CCN3CCOCC3)c(=O)n2C)c1	4	1
Cc1sc2nc(CSc3nc4sc5c(c4c(=O)n3C)CCC5)[nH]c(=O)c2c1C	11	9
O=C(NCCCn1cccn1)C1CCCN(C2CCN(C(=O)C3CC3)CC2)C1 (stereo not drawn)	3	3
Cc1nccn1CCCNC(=O)CC1C(=O)NCCN1CC1CCCCC1 (stereo not drawn)	-1	-3
Cc1ccc(S(=O)(=O)N(C)CCOc2ccccc2C)s1	6	2
O=C(c1ccoc1)N1CC[C@@H](N2CCN(c3ccccc3F)CC2)[C@H](O)C1	2	0
O=C(Cc1ccc(F)cc1)N(Cc1ccccn1)c1nc2c(F)cccc2s1	2	0
C=CCNC(=O)C(NC(=O)c1ccc(F)cc1)C1CCN(C(=O)c2cccc(F)c2)CC1 (stereo not drawn)	-3	1
COc1nc(C)cc(C)c1CNC(=O)c1cc2n(n1)CCCN(C)C2	1	-5
Cc1cccc(NC(=O)C(O)(c2ccccc2)c2ccccc2)n1	8	6
CCCC(=O)OCC(O)CN(Cc1c(-c2ccccc2)nn(C)c1Oc1cccc(C)c1)CC1CC1 (stereo not drawn)	0	1
COc1cc(CC2(CCC(=O)N3CCCC(c4nc5ccccc5o4)C3)CCC(=O)N2)ccc1F (stereo not drawn)	-1	-6
CNC(=O)c1ccccc1NS(=O)(=O)c1ccc(C(F)(F)F)cn1	-2	-3
O=C(c1ccccc1Cc1ccc(Cl)cc1)N1CCOCC1	-1	-5
Cc1cc(=O)n2c3ccccc3n(CC(O)CNc3ccc(Br)cc3)c2c1C#N (stereo not drawn)	3	-2
COc1cc(Nc2cc(C(=O)N3CCSCC3)nc3c(OC)cccc23)cc(OC)c1	-7	-9
NC(=O)c1cncc(-n2ccnc2-c2ccccc2)c1	-4	-8
CCc1nc2ccc(C(=O)NCCCN3CCCC3=O)cn2c1N(CC)Cc1cccc(Br)c1	-4	24
Cc1ccc(C2(c3noc(CN4CCC(c5ccncc5)CC4)n3)CCCC2)cc1	16	3
C=CCNC(=O)C(NC(=O)c1ccc2c(c1)OCO2)C1CCN(C(=O)c2ccccc2OC)CC1 (stereo not drawn)	-5	9
CCc1ccc(-c2ccc(NCc3ccc(C)cc3)nn2)cc1S(=O)(=O)NC	-21	-24
COCCNC(=O)C(C)(C)n1cc(-c2ccc3c(c2)OCCO3)cn1	11	9
CCOc1ccc(CNS(=O)(=O)N(C)C)cc1C	4	1
Cc1ccccc1C(C)NCc1nc2cc(Cl)ccc2c(=O)[nH]1 (stereo not drawn)	-8	-8
C/C(=N/OC(=O)c1ccc(-c2ccccc2)cc1)C(C)(C)C	0	3
O=c1ccc(C(F)(F)F)cn1CCOc1ccc(Cl)cc1Cl	20	15
O=C(C1=C(O)C(=O)N(CCN2CCOCC2)C1c1cccs1)c1cccs1 (stereo not drawn)	9	6
COc1ccccc1C(=O)Nc1ccc(-c2c(C(C)C)[nH]n(-c3cccc(F)c3)c2=O)cc1	32	31
CSc1ccc(COc2coc(CN3CCN(C(=O)[C@H](C)OC(C)=O)CC3)cc2=O)cc1	6	13
COCCN(Cc1ccc(OC)cc1)c1c(C)nc2ccc(C(=O)Nc3ccc4c(c3)OCC(=O)N4)cn12	-2	-7
CCCCNC(=O)C1(C)CCCCN1C(=O)c1cc(-c2ccccc2)cs1 (stereo not drawn)	0	-3
CCOC(=O)CNC(=O)N1CCC2(CC1)[C@@H](C(=O)OCC)[C@@H](O)C(=O)N2C	-1	6
COCCN(Cc1cccs1)S(=O)(=O)c1ccc(S(=O)(=O)N2CCOCC2)cc1	3	-1
CCOc1ccc(N2CCn3c(SCc4cccnc4)nnc32)cc1	9	8
N#CSc1cc(SC#N)c(N)nc1N	52	27
Nc1nonc1-c1noc(Cn2nnc3ccccc32)n1	6	5
Cc1nn(CC(C)C)c2sc(C(=O)N3CCNC(=O)CC3c3ccccc3)cc12 (stereo not drawn)	0	-3
CCOC(=O)C1CCN(Cc2nc3scc(-c4ccc(OC)c(OC)c4)c3c(=O)[nH]2)CC1	13	14
COCCN(CC(=O)N(CCc1c[nH]c2ccccc12)Cc1ccc(F)cc1)C(=O)c1ccc([N+](=O)[O-])cc1	-9	0
CON(C)S(=O)(=O)c1cc(C(=O)Nc2cccc(Cl)c2Cl)ccc1Cl	7	0
Cn1nc(Oc2ccc3ccc(=O)oc3c2)c(=O)n(C)c1=O	10	9
CN(Cc1ccccc1C(F)(F)F)C(=O)c1ncc[nH]1	0	1
COc1cc(Cl)c(C)cc1NC(=O)c1ccc(C#N)cc1	5	3
Continued:
SMILES	NPYLR7 ag	NPYLR7 ag max-min
CN(Cc1nc(COc2ccccc2)no1)CC1Cc2ccccc2O1 (stereo not drawn)	3&-2	2&-5
CCc1[nH]c2c(CNC(=O)Cc3c(C)noc3C)cc(F)cc2c1C	15	2
CC(=O)Nc1ccc(NC(=O)Cn2cnc3c(nnn3Cc3ccccc3)c2=O)cc1	7	7
COc1ccc(CN(C(=O)Nc2ccccc2C(F)(F)F)C(C)C)cc1OS(C)(=O)=O	-1	-9
COc1ccc(NC(=O)Cn2c(=O)n(-c3ccc(C(C)=O)cc3)c(=O)c3ccc(Cl)cc32)cc1OC	18	19
Cc1cc(C)c2[nH]c(C(=O)N3[C@@H]4CC[C@H]3CNC(=O)C4)c(C)c2c1	-4	-8
Cc1ccccc1CCNC(=O)N1CCN(S(=O)(=O)c2c(Cl)cccc2Cl)CC1	0	1
Cc1ccn2c(=O)c(C(=O)NCc3ccc(Cl)cc3)c(O)nc2c1	-2	26
CN1CCN(c2nccc(N3CCC(O)CC3)n2)CC1C(=O)O (stereo not drawn)	3	2
O=C(CSc1nnc(C2CC2)o1)N1CCN(c2ccccc2Cl)CC1	-9	-9
CN(C)CCOC1CCCCc2ccccc21 (stereo not drawn)	-3	0
C=CCOc1c(OC)ccc2c1CN(CC=C)C(=O)CCN2CC(O)COCc1ccco1 (stereo not drawn)	4	7
CN(C)C(CNc1ccc(S(C)(=O)=O)cc1[N+](=O)[O-])c1ccco1 (stereo not drawn)	3	9
COc1ccc(-c2cc(-c3ccc(OC)cc3)c(C#N)c(SC)n2)cc1	-3	-4
CCc1cc(Br)cc(CC)c1NC(=O)CCN1C(=O)C2C3CCC(C3)C2C1=O (stereo not drawn)	3	0
Cc1nn(CC(=O)N2CCN(C(=O)c3ccc4c(c3)OCO4)CC2)c(=O)c2ccccc12	14	8
Cc1cc(C(=O)NC2CCc3cc(Cl)ccc32)c(C)n1Cc1ccco1 (stereo not drawn)	2	2
Cc1ccc(C(C)(C)C)cc1SCc1csc(-c2ccc(C(F)(F)F)cc2)n1	20	29
NC(=O)c1csc(-c2ccc(-c3ccn[nH]3)cc2)n1	16	13
CC(Nc1cc(Cl)nc(N)n1)c1ccc(Cl)s1 (stereo not drawn)	13	10
CC(C)(C)OC(=O)CN(c1cccc(Cl)c1)S(=O)(=O)c1cccn2cnnc12	-9	-11
O=C1CC(Cn2cnc(-c3ccccc3)c2C2CC2)CN1C1CCCC1 (stereo not drawn)	1	-2
CCc1c(C)sc2[nH]c(=S)n(CC)c(=O)c12	-1	-2
COc1cccc(-c2n[nH]c3c2CN(C(=O)c2cccnc2OC)CC3)c1	19	9
C=CCC(O)(CC=C)C(C)NC(=O)c1cc(=O)n(C)c(=O)n1C (stereo not drawn)	4	3
CN(C)CCCNC(CC(=O)Nc1ccc(N=Nc2ccccc2)cc1)C(=O)O (stereo not drawn)	1	-2
COC(=O)C1CC2CCCCC2N1CC(=O)NC(C)c1ccc(F)cc1 (stereo not drawn)	9	2
CCN(C(=O)CN1C(=O)NC(C)(C)C1=O)c1ccc(F)cc1	1	-5
Cc1cccc(Cn2cc(SCC(N)=O)c3ccccc32)c1	7	3
N#Cc1ccc(COC(CN2CCN(C(=O)c3ccc(Cl)cc3Cl)CC2)c2cccc(N3CCCC3)c2)cc1 (stereo not drawn)	5	-1
CCN1CCN(C(=O)c2ccc(N3CCC(N4CCOc5ccc(Cl)cc5C4)CC3)cc2)CC1	14	2
Cc1cc(NS(=O)(=O)c2ccc(C(C)C)cc2)c2ccccc2n1	4	3
O=[N+]([O-])c1ccc(N=Nc2c(O)n(Cc3ccccc3)c3ccccc23)c([N+](=O)[O-])c1	9	8
CCc1cccc(CC)c1NC(=O)CN1CCCCC1CC(=O)OC (stereo not drawn)	-7	-6
Cc1ccc(CNC(=O)C2CC(=O)N(c3ccccc3)C2)cn1 (stereo not drawn)	-13	-18
O=c1[nH]nc(N=Nc2c(O)[nH]c3c(Cl)cc(Cl)cc23)c(=O)[nH]1	-3	-7
O=C(NCCSCc1ccc(Br)s1)Nc1ccc(F)cc1	7	7
OC1(c2ccc(Cl)cc2)CCN(Cc2nc(Cc3ccccc3F)no2)CC1	1	-5
COc1ccc2cc(CN3CCCC(O)(CO)CC3)ccc2c1 (stereo not drawn)	5	4
CC1CN(Cn2c(=O)oc3cc(Br)ccc32)C(C)CO1 (stereo not drawn)	4	1
O=C(CCn1ccc2ccccc21)N1CCN(S(=O)(=O)c2ccccc2F)CC1	3	12
COc1cccc(-n2nc(C(=O)N3CCOCC3)c(=O)n(Cc3ccccc3Cl)c2=O)c1	17	17
COc1ccc(NS(=O)(=O)c2cccc(Cl)c2C)c(C(=O)NCc2ccccc2)c1	4	4
CC1(C)CC2CC(C)(CN2C(=O)Cn2cnc3sccc3c2=O)C1 (stereo not drawn)	1	2
NC(=O)c1ccc(OCC(=O)N2CCCC2C2CCCCC2)cc1 (stereo not drawn)	-25	-26
CCOC(=O)C1C(=O)C=C(c2cccs2)CC1c1ccc(F)cc1 (stereo not drawn)	1	4
O=C(c1cnc(CN2CCCC2)s1)N1CC[C@H](CO)[C@@H](O)C1	1	-3
O=C(Cn1nc2c(c1NC(=O)c1ccc(F)c(F)c1)CSC2)NCCc1ccccc1	8	7
Cn1c(=O)c2c(nc3n(CCO)c(-c4cccs4)cn23)n(C)c1=O	-1	2
O=C1CCC(c2ccc(Br)cc2)=NN1C1CCS(=O)(=O)C1 (stereo not drawn)	-3	-3
CN(C)C(CC(=O)Nc1ccc(N=Nc2ccccc2)cc1)C(=O)O (stereo not drawn)	-5	-6
CC(C)CC(=O)N1CCN(c2ccc(Nc3ccccc3)nn2)CC1	-2	-5
CC(C)N(Cc1nccn1Cc1ccc(Cl)c(Cl)c1)C(=O)C1CCC1	14	17
CCCCC(=O)N1CCN(c2cc(Oc3ccc(F)cc3C)ncn2)CC1	-12	0
CC(=O)N[C@H]1C[C@@H](c2coc(-c3ccccc3)n2)O[C@@H](C2CCCCC2)C1	-1	-4

Laid out differently: entries from further up.
SMILES,NPYLR7 ag,NPYLR7 ag max-min
O=C(NCCSCc1ccc(Br)s1)Nc1ccc(F)cc1,7,7
OC1(c2ccc(Cl)cc2)CCN(Cc2nc(Cc3ccccc3F)no2)CC1,1,-5
COc1ccc2cc(CN3CCCC(O)(CO)CC3)ccc2c1 (stereo not drawn),5,4
CC1CN(Cn2c(=O)oc3cc(Br)ccc32)C(C)CO1 (stereo not drawn),4,1
O=C(CCn1ccc2ccccc21)N1CCN(S(=O)(=O)c2ccccc2F)CC1,3,12
COc1cccc(-n2nc(C(=O)N3CCOCC3)c(=O)n(Cc3ccccc3Cl)c2=O)c1,17,17
COc1ccc(NS(=O)(=O)c2cccc(Cl)c2C)c(C(=O)NCc2ccccc2)c1,4,4
CC1(C)CC2CC(C)(CN2C(=O)Cn2cnc3sccc3c2=O)C1 (stereo not drawn),1,2
NC(=O)c1ccc(OCC(=O)N2CCCC2C2CCCCC2)cc1 (stereo not drawn),-25,-26
CCOC(=O)C1C(=O)C=C(c2cccs2)CC1c1ccc(F)cc1 (stereo not drawn),1,4
O=C(c1cnc(CN2CCCC2)s1)N1CC[C@H](CO)[C@@H](O)C1,1,-3
O=C(Cn1nc2c(c1NC(=O)c1ccc(F)c(F)c1)CSC2)NCCc1ccccc1,8,7
Cn1c(=O)c2c(nc3n(CCO)c(-c4cccs4)cn23)n(C)c1=O,-1,2
O=C1CCC(c2ccc(Br)cc2)=NN1C1CCS(=O)(=O)C1 (stereo not drawn),-3,-3
CN(C)C(CC(=O)Nc1ccc(N=Nc2ccccc2)cc1)C(=O)O (stereo not drawn),-5,-6
CC(C)CC(=O)N1CCN(c2ccc(Nc3ccccc3)nn2)CC1,-2,-5

An excerpt. The share of hits here may be higher or lower than overall.
